gsp ag – activates gsp, the McCune-Albright syndrome mutation; gsp mutant cells, cAMP HTRF, 30 min; control for the full effect not named in the record; Potency, µM (highest dose often 76.9 µM), for inactives: top-dose activation (cAMP increase), usual class: activators; 340,000 tested, 0.13% active; AID 624287; active = well fitted activation curve with a large enough effect; inconclusive = small, poorly fitted or top-dose-only effect, or another doubt; inactive = no such curve, though single readings can be large or run the other way; cell line not stated here;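 further: phosphodiesterase inhibitor Ro 20-1724 added with compounds to block cAMP breakdown; potency means the concentration at half of the fitted maximal effect; nearly all actives have a fitted effect of over 60% in size; about a fifth of the inactives were tested at one dose only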
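Cells stably selected in G418 were plated at 2000/well, grown 16-24 hr, then given compounds in DMSO with the PDE inhibitor […] (300 uM solution added) for 30 min at 37C; cAMP was read by HTRF.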
D2 agonist – human D2 receptor agonism in beta-arrestin assay; 360,000 tested, 0.084% active; DiscoveRx PathHunter D2 beta-arrestin, luminescence, 90 min; 100% = 57 uM dopamine signal; P14416; activation, % (no concentration beside the values); AID 624465; in the data active = activation above about 40%; inconclusive = about 15% to 40%; inactive = below about 15%; further: compound concentration not given in the record; the text of the record calls up to 30% inactive
Target sequence (P14416 whole entry, looked up): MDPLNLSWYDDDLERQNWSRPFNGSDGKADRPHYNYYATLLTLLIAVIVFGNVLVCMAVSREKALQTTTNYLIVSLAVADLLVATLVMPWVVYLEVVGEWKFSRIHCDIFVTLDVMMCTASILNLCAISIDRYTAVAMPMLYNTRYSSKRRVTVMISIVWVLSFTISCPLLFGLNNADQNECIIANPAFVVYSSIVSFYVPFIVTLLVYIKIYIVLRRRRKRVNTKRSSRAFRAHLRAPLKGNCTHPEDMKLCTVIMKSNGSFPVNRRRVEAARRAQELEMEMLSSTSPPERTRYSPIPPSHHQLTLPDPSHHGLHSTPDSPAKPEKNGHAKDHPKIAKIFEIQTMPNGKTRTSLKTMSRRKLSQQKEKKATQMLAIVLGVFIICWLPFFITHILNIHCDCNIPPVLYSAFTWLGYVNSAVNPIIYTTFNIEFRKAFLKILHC
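DiscoveRx PathHunter D2 beta-arrestin cells (2,100/well) attached overnight, then compound-stimulated 90 min at 37 C in HBSS/10 mM HEPES/0.1% Tween-20 buffer; beta-galactosidase complementation read by luminescence after 1 h at ambient temperature. Dopamine 57 uM final (EC100) as control.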
Menin MLL FP FL – inhibitors of human menin-MLL interaction, wild-type MLL peptide; Fluorescence polarization, fluorescein-MLL peptide displacement from menin; FP activity change, % at 61.4 µM; 290,000 tested, under 10 active; AID 1766; inconclusive = falling polarisation curve, or a change in total fluorescence; inactive = total fluorescence flat and polarisation flat or rising; no compound was filed as active; the % refers to the polarisation; negative = inhibition;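 further: % of control where 0% means no effect; inhibitors lower the polarisation; unlabelled MLL peptide was the positive control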
PINK1 expr mod – modulators of PINK1 expression; AID 624263; PINK1 immunofluorescence, high-content cytometry, 24 h; Potency, µM (series often up to 76.6 µM), for inactives: top-dose activation (PINK1 increase), most hits filed as activators; 410,000 tested, 0.2% active; active = well fitted activation curve with a large enough effect; inconclusive = small, poorly fitted or top-dose-only effect; inactive = flat fitted curve, though single readings scatter; cell line not stated here;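 further: potency means the concentration at half of the fitted maximal effect; % of control where 0% means no effect; nearly all actives have a fitted effect of over 65% in size; a mitochondrial uncoupler was the plate control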
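Decision-based qHTS: stable cells, 24 h exposure to five compound concentrations, CCCP as control. Fixed cells stained for PINK1 plus nuclear, mitochondrial and cell markers, cytometer read.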
ClpP mod – qHTS Assay for Activators of ClpP; Potency, µM (highest dose often 57.5 µM), without a hit: at the highest dose activity change, negative = active; AID 651965, 2013; ATP-dependent Clp protease proteolytic subunit (Bacillus subtilis (strain 168)), P80244; purified B. subtilis ClpP, FRET peptide cleavage, 20 min; 340,000 tested, 1.9% active; active = well fitted falling curve with a large enough effect; inconclusive = small, poorly fitted or top-dose-only effect; inactive = no such curve, though single readings can be large or run the other way; further: potency means the concentration at half of the fitted maximal effect; the source files actives as falling curves though it sought activators and does not explain the sign; nearly all actives have a fitted effect of over 65% in size; many hits overshoot -100%
Target sequence (P80244 whole entry, looked up): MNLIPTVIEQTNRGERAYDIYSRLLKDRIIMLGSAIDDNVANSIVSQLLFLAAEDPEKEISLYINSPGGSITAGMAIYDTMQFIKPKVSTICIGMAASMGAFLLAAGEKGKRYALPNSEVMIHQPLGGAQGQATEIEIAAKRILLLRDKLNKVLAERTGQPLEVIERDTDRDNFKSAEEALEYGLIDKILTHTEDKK
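Purified B. subtilis ClpP, 10 microg/mL final in Tris/HCl pH8 with KCl, BSA, glycerol and Tween-20, cleaved an Abz/nitrotyrosine-quenched decapeptide. Fluorescence (ex 320, em 430) was read at 0 and 20 min at room temperature. Delta was normalized to 5.8 microM ADEP and DMSO/no-enzyme controls.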
Sfp PPTase inh – Sfp phosphopantetheinyl transferase inhibition; Q9F4F7; Biochemical Sfp PPTase activity, qHTS; Potency, µM, inactives show max response, negative = inhibition, actives largely listed as inhibitors; 310,000 tested, 3.5% active; AID 1490; active means well fitted inhibition curve with a large enough effect; inconclusive means small, poorly fitted or top-dose-only effect, or another doubt; inactive means no such curve, though single readings can be large or run the other way;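 further: the enzyme is Sfp with the accession as filed and its product quenches rhodamine fluorescence; potency means the concentration at half of the fitted maximal effect; 0% = enzyme reaction without inhibitor and -100% = no enzyme wells; top concentration of the series not given in the record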
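Step 1, compound plus 15 nM Sfp-PPTase, 15 min, room temperature. Step 2, add rhodamine-CoA (5 uM) and BHQ-2-YbbR (12.5 uM). Step 3, read 525/598 nm fluorescence at 0 and 30 min.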
gsp antag – gsp mutant antagonism; gsp-mutant cells, cAMP HTRF, 30 min; control for the full effect not named in the record; Potency, µM (top dose mostly 76.9 µM), without a hit: at the top dose activity change, negative = inhibition, actives largely listed as inhibitors; 340,000 tested, 0.4% active; AID 624288; active = falling curve of any shape with a large fitted effect; inconclusive = falling curve, mostly with a smaller effect; inactive = flat or rising curve; cell line not stated here;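 further: intracellular cAMP measured with PDE inhibitor Ro 20-1724 present during compound exposure; potency means the concentration at half of the fitted maximal effect; on the % scale 0 is the no-effect control and ±100 the full control effect; nearly all actives have a fitted effect of over 65% in size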
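Cells in G418 medium, seeded 16-24 h, 37C; buffer exchange to DPBS + 1 mM CaCl2, 0.5 mM MgCl2, 0.05% BSA; cpds in DMSO + […] (300 uM stock), 30 min 37C; HTRF cAMP detection.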
* = called active by the depositor; ? = inconclusive; / = no result given; & = joins results of further samples; [ ] = another dose, or the depositor's remark.

SMILES	gsp ag	D2 agonist	Menin MLL FP FL	PINK1 expr mod	ClpP mod	Sfp PPTase inh	gsp antag
O=C(C1=C(O)C(=O)N(CCCn2ccnc2)C1c1ccccc1)c1ccco1 (configuration not stated)	?	-2.1	-1.0	-0.5%	-4.1%	10%	-12%
Cc1nc2ncnn2c(C)c1CCC(=O)NCCCN1CCN(c2cccc(Cl)c2)CC1	27%	?	5.0	-0.3%	-1.7%	16%	0%
COc1cc(C=NNC(=S)Nc2ccc(S(=O)(=O)N3CCCCC3)cc2)cc(OC)c1OC	-51%[inhibitor]	-0.7	/	5.3%	-6.7%	/	/
CCn1nc(C)c(/C=N/NC(=O)c2ccoc2C)c1C	14%	-2.4	0.4	5.7%	16µM*	9%	4%
CN(CCC#N)c1ccc(/C=C(\C#N)c2ccccn2)cc1	-1%	-4.8	?	-1.2%	0.7%	-6%	-19%
Cc1c(Cl)c(C(=O)NNC(=S)Nc2ccccc2)nn1C	-6%[15.4 µM]	-12	1.3	0.1%	1.4%	5%	-6%
CCc1ccc(C(=O)OCC(=O)c2c(N)n(CC(C)C)c(=O)n(C)c2=O)cc1	-8%	2.3	4.1	6.4%	/	5%	-13%
Nc1nc(C(=O)N2CCOCC2)nn1C(=O)c1ccc(Cl)cc1	-37%[inhibitor]	-0.3	-0.8	0.2%	0.6%	5%	0%
CC(C)[C@H](NS(=O)(=O)c1cccc(C(F)(F)F)c1)C(=O)OCC(N)=O	3%	-2.1	0.0	2.4%	/	-10%	8%
CCOc1ccc2[nH]c(=O)c(CN(CCCO)C(C)=O)cc2c1	1%	0.9	1.7	-1.1%	28µM*	6%	6%
O=C(Nc1ccc(F)cc1)C(Sc1nnc2ccccn12)c1ccccc1 (configuration not stated)	-27%	-3.5	1.5	4.0%	1.4%	1%	-6%
N#CC(c1ccccc1)(c1ncc(C(F)(F)F)cc1Cl)N1CCOCC1 (configuration not stated)	-11%	-0.2	0.1	2.9%	-2.9%	-1%	5%
CC(C)Oc1ccc(CNC(=S)N/N=C/c2ccc([N+](=O)[O-])cc2)cc1	-13%	-0.8	1.0	6.2%	1.4%	18%	-2%
CC1CCN(CC(=O)Nc2ccc(S(=O)(=O)N3CCCCC3)cc2)CC1	15%	-4.8	0.6	2.3%	-2.9%	-5%	1%
COCCNC(=O)CSc1ncnc2sc(-c3ccccc3)cc12	-5%[15.4 µM]	-5.1	0.7	7.0%	/	17%	9%
COc1ccc(/C(N)=N/OC(=O)c2cccc([N+](=O)[O-])c2)cc1OC	2%	-3.6	0.7	6.7%	?	12%	9%
CN(C)c1nc(N)c2nccnc2n1	-25%	-0.3	/	-3.3%	?	/	8%
CN(C)c1c(F)cc(C(=O)NC(=O)NCc2cccnc2)cc1F	85%	1.2	/	1.3%	1.5%	-5%	11%
C#CCOCCOCCOCCNc1nc(N2CCN(C(=O)[C@H](CCCCN)n3cc(C(N)CC(C)C)nn3)CC2)nc(N2CCN(C(=O)[C@H](CCC(=O)O)n3cc(C(N)[C@H](C)CC)nn3)CC2)n1 (some centres not stated)	-18%	-4.3	-3.7	-0.7%	-1.2%	5%	10%
O=C1CC(N2CCN(c3cccc(C(F)(F)F)c3)CC2)C(=O)N1c1ccc(F)cc1 (configuration not stated)	1%	-1.8	4.2	12%[38.3 µM]	-2.1%	-3%	4%
COc1ccc(CN(C(=O)c2cc(=O)c3ccccc3o2)C2CCS(=O)(=O)C2)cc1OC (configuration not stated)	?	-1.0	1.5	-1.0%&2.9%	0.7%&1.5%	6%	-15%
CC(C)(C)OC(=O)CNC(=O)c1[nH]cnc1C(=O)NCCCCCNC(=O)OC(C)(C)C	-2%	14	0.0	0.6%	1.1%	7%	35µM*
O=C(NC1CCOCC1)C1CCC(=O)N(CCc2ccc(Cl)cc2)C1 (configuration not stated)	?	4.7	-0.3	-0.4%	1.2%	2%	6%
CC1CCC(=NNS(=O)(=O)c2ccc([N+](=O)[O-])cc2)CC1 (configuration not stated)	3%	0.7	/	1.4%	/	/	12%
COC(=O)c1sc(N2C(=O)c3oc4ccccc4c(=O)c3C2c2cccs2)nc1C (configuration not stated)	13%	-0.5	-2.6	13%	-5.0%	-4%	1%
CCOc1ccc(C(CC(=O)O)NC(=O)c2cccs2)cc1 (configuration not stated)	0%	-1.4	2.2	1.2%	-0.5%	8%	10%
O=S(=O)(NC1=NCCC1)c1cccc(NS(=O)(=O)c2ccc(F)c(Cl)c2)c1	26%	7.7	/	-1.3%	1.4%	/	3%
CCOC(=O)N1CCC(=NNC(=O)COc2cccc(C)c2)CC1	-11%	-1.6	2.2	1.1%	0.5%	10%	-17%
O=C1NCCCC1C(=O)Nc1ccccc1C(F)(F)F (configuration not stated)	?	0.8	16	-1.2%[38.3 µM]	1.9%	16%	5%
COc1cc(NC(=O)c2ccc(F)cc2)c(OC)cc1Cl	5%	-0.2	2.3	-2.9%	-2.9%	3%	-2%
O=P(OCC1CCCO1)(OCC1CCCO1)OCC1CCCO1 (configuration not stated)	-9%	-5.3	/	-0.6%	-3.1%	/	2%
Cc1ccccc1CNC(=O)c1csc([C@H]2C[C@H](O)[C@@H](CO)O2)n1	/	-3.7	/	2.4%	0.9%	/	/
Cc1cc(C)nc(SCC(=O)c2ccc(O)c(O)c2)n1	17%	0.4	-18	-0.1%	-8.2%	?	-13%
O=C(NCc1cccnc1)c1ccccc1NS(=O)(=O)c1ccc(Br)cc1	?	6.0	/	9.2%	-2.9%	/	-24%
COc1ccccc1CNc1ncnc2c1cnn2-c1ccccc1	-21%	1.3	-0.1	9.0%	?	-7%	7%
O=C(c1cc2cc(Cl)ccc2[nH]1)N1CCN(c2ccccn2)CC1	-9%[15.4 µM]	-0.4	1.3	2.6%	0.9%	24%	3%
Cc1noc(C)c1COc1ccc(C(=O)N2CCC(C(N)=O)CC2)cc1	-4%	11	/	0.0%	-0.7%	/	15%
COc1cc(NC(=O)C2=C(N3CCOCC3)/C(=C\c3ccc(Br)cc3)CC2)cc(OC)c1OC	5%	0.9	3.4	?	-3.1%	?	7%
CC(O)C(=O)NCCOCCOCCNC(=O)C(C)O (configuration not stated)	-37%[inhibitor]	-1.8	2.8	3.0%	0.3%	5%	17%
CCC(=O)Nc1cccc(C2=NOC3(C2)C[C@@H](C(N)=O)N(C(=O)CC)C3)c1 (some centres not stated)	-6%	-2.2	-0.1	-0.9%	-5.8%	6%	-5%
CCOc1ccccc1NC(=O)CCNS(=O)(=O)c1cccc2nsnc12	-2%	0.3	5.4	-1.4%	/	9%	4%
O=C1Nc2ccccc2CCC1Sc1nnc(-c2ccc(Cl)cc2)s1 (configuration not stated)	16%	3.3	-1.7	-1.8%	?	-9%	-22%
CC1=C(C(=O)Nc2ccc(Cl)cc2C(=O)N2CCC(C(N)=O)CC2)SCCO1	-65%[inhibitor]	-2.0	/	-0.7%	-0.6%	15%	17%
COc1ccc(NS(=O)(=O)c2cc(NC(=O)c3cc(=O)c4ccccc4o3)ccc2OC)cc1	4%[15.4 µM]	3.0	-0.3	5.6%	/	15%	-14%
O=C(CCSc1nc2ccccc2o1)Nc1ccccc1	-11%	0.8	-1.6	-0.2%	1.9%	1%	-6%
COc1ccc(S(=O)(=O)N2CCCC(C(=O)NCc3ccncc3)C2)cc1Cl (configuration not stated)	-10%	1.5	0.5	0.6%[38.3 µM]	1.2%	-2%	-7%
Cc1[nH]c(C(=O)N/N=C/c2ccc(C(=O)O)cc2)c(C)c1C(=O)N/N=C/c1ccc(C(=O)O)cc1	3%	-1.4	4.8	-3.0%	-2.3%	-6%	-6%
COc1ccc(NC(=O)N2CCCC2C(=O)Nc2cccc(C)c2C)cc1 (configuration not stated)	-19%	-0.6	5.2	-0.1%	/	15%	8%
Cc1cccc(C)c1NC(=O)COC(=O)c1cc(S(=O)(=O)Nc2ccc(Cl)cc2)ccc1O	/	1.6	/	5.6%	4.1%	/	1%
COc1cccc(C2C(C#N)=C(N)OC3=C2C(=O)CCC3)c1OC(=O)c1ccco1 (configuration not stated)	30%	2.6	-0.1	-3.7%	-1.3%	4%	3%
O=S(=O)(NCc1ccccc1)c1ccc(Cl)cc1	20%	2.6	13	-1.9%	3.1%	7%	-4%
COc1ccc(NS(=O)(=O)c2c(C)[nH]c(C)c2C(=O)N2CCCCC2)cc1Cl	?	0.9	-0.3	2.0%	-2.3%	6%	-1%
CCOC(=O)c1c(C)[nH]c(C)c1S(=O)(=O)NC(C)Cc1ccco1 (configuration not stated)	10%	0.1	/	2.0%	-1.2%	-1%	-1%
O=c1[nH]c(=O)c2ccccc2o1	12%[15.4 µM]	-1.5	-1.9	1.1%	/	-18%	1%
C=CCOc1cccc(/C=C2\C(=O)N(Cc3ccc(C)cc3)C(C)=C2C(=O)OC)c1	-1%	1.1	-3.8	3.2%	/	11%	14%
Cc1cc(C(=O)NC2CCCCC2C)c2ccccc2n1 (configuration not stated)	-29%	-0.9	/	1.4%	-2.7%	2%	1%
Cc1ccc(-c2cn(C[C@H]3CC[C@@H]([C@@H]4CC[C@H](Cn5cc(-c6ccc(C)cc6)nn5)O4)O3)nn2)cc1	-4%	-3.9	4.4	7.6%	1.4%	10%	-16%

Source: PubChem BioAssay
